Mtb growth: Mycobacterium tuberculosis H37Rv growth inhibition, cell based, confirmatory dose response (AID 1949) | hit rate 1.6% among 100,000 | most inactive calls were filed without a number and no value below 0 was filed | M. tuberculosis H37Rv growth inhibition | inhibition, % at 10 µg/mL, or IC50 in µg/mL where a hit was titrated;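 active = confirmed in a dose series; inconclusive = about 50% or more but not retested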;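 also: bacteria grown 7 days with compound before Alamar blue readout; 0% = untreated bacteria and 100% = reference antibiotic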
* marks the source's active call; other numbers are inactive results; i = inactive; ? = inconclusive. Not all compounds are listed; count on the stated rates, not on these rows.

| Compound | Mtb growth |
| --- | --- |
| COCCNC(=O)c1ccccc1NC(=O)c1ccc(OC)c(OC)c1 | i |
| CCc1ccc(NC(=O)CSc2nnc(-c3ccc(OC)cc3)n2CC)cc1 | i |
| COc1ccc(-c2nnc(SCC(=O)Nc3cccc(C(F)(F)F)c3)n2-c2ccccc2)cc1 | i |
| CS(=O)(=O)N1N=C(c2ccco2)CC1c1ccco1 (stereo unspecified) | 0.0% |
| CCOc1cc(S(=O)(=O)NCc2ccccn2)c(C)cc1C | i |
| Cc1ccc(-n2c(SCC(=O)Nc3cccc(C)c3C)nc3ccccc3c2=O)cc1 | 34.9% |
| COc1ccc(S(=O)(=O)NCCOc2ccccc2)cc1OC | i |
| CCc1cc(=O)oc2c(C)c(OC(=O)c3cccc(OC)c3)ccc12 | i |
| Cc1ccc(NC(=O)c2c(N)sc3c2CCC(C(C)(C)C)C3)c(C)c1 (stereo unspecified) | 6.0% |
| Cc1cc(C=O)c(C)n1-c1cccc([N+](=O)[O-])c1 | i |
| Cc1ccc(S(=O)(=O)N2CCN(C(=O)N3CCCCC3)CC2)cc1C | i |
| CCOC(=O)C(Cc1ccccc1)C(=O)Nc1ccccc1OC (stereo unspecified) | i |
| CCCn1nnc(NC(=O)c2cc(I)ccc2Cl)n1 | i |
| O=C(CSc1ccccc1)NCCSCc1ccccc1 | i |
| CCCC(=O)Nc1ccccc1NC(=O)CCc1ccccc1 | i |
| CC(=O)c1cccc(N(CC(=O)NCc2ccc(Cl)cc2Cl)S(C)(=O)=O)c1 | i |
| C=CCn1c(SCC(=O)Nc2sc3c(c2C#N)CCCC3)nnc1-c1ccccc1C | 10.5% |
| O=[N+]([O-])c1cccc(S(=O)(=O)Nc2ccc(O)cc2)c1 | i |
| COc1ccc2nc(NC(=O)c3ccoc3C)sc2c1 | 0.8% |
| O=C(NCC1CCCO1)c1ccc2c(c1)C(=O)N(C1CCCCC1)C2=O (stereo unspecified) | i |
| Oc1ccc(Br)cc1CN1CCN(C2CCCCC2)CC1 | i |
| COc1ccc2nc(NCc3cccnc3)sc2c1 | i |
| CCCC(C)C(=O)N1CC(C)CC(C)C1 (stereo unspecified) | i |
| O=c1c2ccccc2[nH]c(=S)n1-c1cccc(C(F)(F)F)c1 | 7.0% |
| COc1cc(NC(=S)N2CCC(Cc3ccccc3)CC2)c(OC)cc1Cl | i |
| O=C(c1cnn2c(C(F)(F)F)cc(-c3ccco3)nc12)N1CCCc2ccccc21 | i |
| O=C(CN(Cc1c(F)cccc1Cl)S(=O)(=O)c1ccc(Cl)cc1)N1CCCC1 | i |
| Cc1ccc(S(=O)(=O)CC(=O)c2ccccc2[N+](=O)[O-])cc1 | i |
| O=C(c1ccc(C(=O)N2CCN(c3ccccc3F)CC2)cc1)N1CCN(c2ccccc2F)CC1 | i |
| CC(NC(=O)c1ccc2c(c1)OCO2)C1CC2CCC1C2 (stereo unspecified) | i |
| COc1cc(C)c(C)cc1S(=O)(=O)N1CCCc2ccccc21 | i |
| CCOc1cc(C2NC(=O)N(C)C(C)=C2C(=O)OCC2CCCO2)cc(Cl)c1O (stereo unspecified) | 0.8% |

Shown field by field: entries from further up
O=c1c2ccccc2[nH]c(=S)n1-c1cccc(C(F)(F)F)c1
  Mtb growth: 7.0%

COc1cc(NC(=S)N2CCC(Cc3ccccc3)CC2)c(OC)cc1Cl
  Mtb growth: i

O=C(c1cnn2c(C(F)(F)F)cc(-c3ccco3)nc12)N1CCCc2ccccc21
  Mtb growth: i

O=C(CN(Cc1c(F)cccc1Cl)S(=O)(=O)c1ccc(Cl)cc1)N1CCCC1
  Mtb growth: i

Other compounds:
| Compound | Mtb growth |
| --- | --- |
| CC(C)(C)c1ccc(OC(=O)CCN2C(=O)C3C4C=CC(C5CC45)C3C2=O)cc1 (stereo unspecified) | 8.0% |
| CCC(CC)C(=O)Nc1cc(Cl)c(O)c(Cl)c1 | 5.4% |
| CCc1ccc(NC(=O)CN(c2cccc(Br)c2)S(C)(=O)=O)cc1 | 4.3% |
| CCc1ccc(Oc2c(C(F)(F)F)oc3cc(OC(C)=O)ccc3c2=O)cc1 | 1.7% |
| Cc1ccccc1N1CCN(S(=O)(=O)N(C)C)CC1 | i |
| Cc1cc(OC(F)F)ccc1NC(=S)Nc1ccc(Br)cc1Cl | i |
| Cc1cc(C)c(S(=O)(=O)NCCCN2CCOCC2)c(C)c1 | i |
| Cc1onc(-c2ccccc2)c1C(=O)NCc1ccc(F)cc1 | i |
| Cc1ccc(S(=O)(=O)Nc2ccccc2C(=O)O)cc1 | i |
| COC(=O)c1ccc(OC(C)C(=O)c2ccc(C)cc2)cc1 (stereo unspecified) | i |
| O=C1N2CCCc3cccc(c32)C12Nc1ccccc1S2 (stereo unspecified) | i |
| Cc1cc(Cl)c(OCCOCCOc2ncnc3ccccc23)c(Cl)c1 | i |
| Cc1ccc(CSCC(=O)Nc2ccccc2C(=O)NCc2ccco2)cc1 | i |
| COc1cccc(CNC(=O)C(=O)NCC2CCCO2)c1 (stereo unspecified) | i |
| COCCNC(=S)NNC(=O)CSCc1ccc(Cl)cc1Cl | i |
| CC(C)(C)C(=O)NNC(=O)COc1ccccc1-c1ccccc1 | i |
| COc1ccccc1Oc1ccc(S(=O)(=O)NCc2ccccn2)cc1 | i |
| COc1cc(C2c3c(oc4ccc(Br)cc4c3=O)C(=O)N2Cc2ccccc2Cl)ccc1O (stereo unspecified) | 1.5% |
| O=[N+]([O-])/C=C\c1ccc(N2CCCCC2)cc1 | 10.5% |
| Cc1cccc(C)c1OCc1nnc2c3cnn(C)c3ncn12 | i |
| CCOc1ccc(S(=O)(=O)Nc2ccc(CC)cc2)cc1 | 11.2% |
| Cc1cc(-c2cccs2)c(C#N)c(SCC(=O)Nc2cccc(F)c2)n1 | i |
| CCc1ccccc1NC(=O)CSc1nc2ncccc2[nH]1 | i |
| CCCCN1C(=N)C(CC)(CC)C(=O)NC1=O | i |
| CC(=O)c1cccc(Oc2ccc(-c3nnc(-c4ccccc4)o3)cc2[N+](=O)[O-])c1 | 1.0% |
| COc1cc(-c2nc3sc4c(c3c(=O)[nH]2)CCC(C)C4)ccc1OC(=O)c1cccs1 (stereo unspecified) | i |
| Cc1ccc(Cl)cc1N1CCN(C(=O)c2ccc(N(C)S(C)(=O)=O)cc2)CC1 | i |
| COc1ccccc1CNC(=O)COc1ccc([N+](=O)[O-])cc1 | i |
| O=C1CC(N2CCN(C3CCCCC3)CC2)C(=O)N1c1ccc(F)cc1 (stereo unspecified) | i |
| C=C(C)c1cccc(C(C)(C)NC(=O)NCCCN(C)C)c1 | i |
| CCCc1cc(=O)[nH]c(/N=C(/NC(=O)C(CC)c2ccccc2)Nc2ccc(F)cc2)n1 (stereo unspecified) | i |
| COc1ccc(S(=O)(=O)N2CCC(C(=O)Nc3ccc(C)cc3C)CC2)cc1Cl | i |
| Cc1cc(Cl)cc(Cl)c1OCCOCCN1CCN(C)CC1 | i |
| CCOc1cc(S(=O)(=O)NCCN2CCOCC2)ccc1F | i |
| CS(=O)(=O)N(CC(=O)Nc1ccc(C(F)(F)F)cc1)c1ccc(Cl)cc1 | 31.7% |
| Cc1ccc(C(=O)Nc2ccc(S(N)(=O)=O)cc2)c(C)c1 | i |
| O=C(COc1cccc(CNc2ccc(Oc3ccccc3)cc2)c1)Nc1ccccc1 | 19.3% |
| CCN1CCN(C(=O)CN(c2ccc(C)c(Cl)c2)S(C)(=O)=O)CC1 | i |
| COc1ccc([N+](=O)[O-])cc1NC(=S)NCc1ccc(Cl)cc1 | i |
| Cc1oc2cc(O)ccc2c(=O)c1-c1nc2ccccc2n1C | i |

By substructure: the entries above with a CF3 group.
| Compound | Mtb growth |
| --- | --- |
| COc1ccc(-c2nnc(SCC(=O)Nc3cccc(C(F)(F)F)c3)n2-c2ccccc2)cc1 | i |
| O=c1c2ccccc2[nH]c(=S)n1-c1cccc(C(F)(F)F)c1 | 7.0% |
| O=C(c1cnn2c(C(F)(F)F)cc(-c3ccco3)nc12)N1CCCc2ccccc21 | i |
| CCc1ccc(Oc2c(C(F)(F)F)oc3cc(OC(C)=O)ccc3c2=O)cc1 | 1.7% |
| CS(=O)(=O)N(CC(=O)Nc1ccc(C(F)(F)F)cc1)c1ccc(Cl)cc1 | 31.7% |

Further structures follow:
| Compound | Mtb growth |
| --- | --- |
| CCOC(=O)C1=C(C)Nc2ncnn2C1c1c[nH]c2ccccc12 (stereo unspecified) | i |
| O=C(Nc1ccccc1)Nc1ccccc1C(=O)NCc1ccccc1 | i |
| Cn1c(SCC(=O)NCc2cccs2)nnc1-c1cccs1 | i |
| COc1ccccc1N(CC(=O)Nc1c(C)cccc1C(C)C)S(=O)(=O)c1ccccc1 | i |
| Cc1cc(Cl)ccc1Nc1ncnc2ccc(Br)cc12 | ? |
| O=c1c2ccccc2nc(-c2ccc(Cl)cc2Cl)n1CCOCCOc1ccccc1F | 2.0% |
| O=C(Nc1nonc1NC(=O)c1sc2ccccc2c1Cl)c1sc2ccccc2c1Cl | i |
| CCCC(=O)C1C(=O)CC(C)(C)C(C(=O)OC)C1=O (stereo unspecified) | i |
| Cc1cc(C(=O)NC(C)c2ccncc2)no1 (stereo unspecified) | 6.6% |
| CC(C)Oc1cccc(NC(=O)C2CC(=O)N(c3ccc(F)cc3)C2)c1 (stereo unspecified) | i |
| O=C(CSc1ncnc2nc[nH]c12)NCCc1ccccc1 | 6.8% |
| O=c1[nH]c(=O)n(Cc2ccco2)c2c1C(C(F)(F)F)(C(F)(F)F)N=C(c1ccc(F)cc1)N2 | i |
| Cc1c(C)c2ccc(O)c(O)c2oc1=O | 2.8% |
| COC(=O)c1cc(OC)c(OC)cc1NC(=O)CCC1CCCC1 | i |
| COC(=O)COc1cccc(NS(=O)(=O)c2ccc(Cl)cc2)c1 | i |
| COc1cc(C2C3=C(CCCC3=O)Nc3ncnn32)ccc1OCc1ccccc1Cl (stereo unspecified) | i |
| CCCNC(=O)c1ccccc1NS(=O)(=O)c1cc(Cl)ccc1Cl | 6.0% |
| CCc1ccc(OCC(=O)Nc2ccc(S(=O)(=O)NC(C)(C)C)cc2)c(Br)c1 | i |
| Cc1ccc(-c2csc(Nc3ccc(S(N)(=O)=O)cc3)n2)cc1 | 2.52µg/mL* |
| COC(=O)c1ccc(NC(=O)C(OC)c2ccccc2)cc1 (stereo unspecified) | i |
| O=C(NCc1ccc2c(c1)OCO2)NC1(C(F)(F)F)Oc2ccc(Cl)cc2O1 (stereo unspecified) | 16.5% |
| Cc1ccc(CN(CC(=O)NCc2ccco2)S(=O)(=O)c2ccc(C)cc2)cc1 | 1.8% |
| CCOC(=O)c1ccc(NC(=O)Cn2cnc3sc(CC)cc3c2=O)cc1 | i |
| Cc1ccc(N(CC(=O)NCCC2=CCCCC2)S(C)(=O)=O)cc1 | i |
| COc1ccc([N+](=O)[O-])cc1CSc1nnc(-c2ccc(NC(C)=O)cc2)n1C | i |
| O=C(Nc1ccccc1N1CCCC1)c1cccnc1 | i |
| COc1ccc(C(=S)N2CCOCC2)cc1OC(=O)c1ccccc1Cl | i |
| Cc1cc(Br)cc(C)c1OCC(=O)NC1CCCCC1 | i |
| COc1c(C)cccc1C(=O)NC(=S)Nc1cccc(NC(=O)c2cc3ccccc3o2)c1 | i |
| Cc1ccc(S(=O)(=O)NC(=O)c2ccc(F)cc2)cc1 | i |
| CCOC(=O)C(Cc1cccc(Cl)c1Cl)Sc1nc2ccccc2[nH]1 (stereo unspecified) | 0.7% |
| Cc1ccc(S(=O)(=O)N(C)c2ccccc2C(=O)Nc2ccc3c(c2)OCCO3)cc1 | i |
| COc1ccc(NC(=S)Nc2cccc(Cl)c2C)c(OC)c1 | i |
| Cc1onc(-c2c(F)cccc2Cl)c1C(=O)NCC(=O)c1ccccc1 | i |
| O=c1c2ccccc2ncn1C(c1ccccc1)c1ccccc1 | 4.7% |
| O=C(COc1ccc(C(=O)NCc2ccccc2)cc1)Nc1ccc(Cl)cc1 | i |
| CC1CCN(S(=O)(=O)c2cccc(C(=O)NCC3CCCO3)c2)CC1 (stereo unspecified) | i |
| Cc1ccc(-c2nnc(SCC(=O)Nc3cc(C(F)(F)F)ccc3Cl)n2C)cc1 | i |
| O=C(O)c1ccc(CNS(=O)(=O)c2c(F)cccc2F)cc1 | i |
| COc1ccc(CCNC(=O)CN(c2cc(Cl)ccc2Cl)S(C)(=O)=O)cc1OC | i |
| COc1ccc(C)cc1NS(=O)(=O)c1ccc(NC(=O)c2ccco2)cc1 | i |
| O=C(O)c1cnc(SCc2ccccc2)[nH]c1=O | i |
| CC(C)c1ccccc1NC(=O)COc1ccc(-c2ccccc2)cc1 | i |
| CCc1cc(=O)oc2c(C)c(OC(C)=O)ccc12 | i |
| Cc1ccc(SCC(=O)Nc2cccc(F)c2)cc1 | 5.34µg/mL* |
| COc1ccc(CCNC(=O)CSCc2c(Cl)cccc2Cl)cc1 | i |
| Cc1occc1C(=O)Nc1sc2c(c1C(N)=O)CCC2 | i |
| O=S(=O)(Cc1ccccc1)Nc1ccc(S(=O)(=O)N2CCc3ccccc32)cc1 | i |
| C=CCc1ccccc1OCCOCCN1CCOCC1 | i |
| CN(C)CCOCCOc1ccc(Cl)cc1Br | i |
| CCCOc1ccc(N2CC(C(=O)NCCc3ccc(OC)c(OC)c3)CC2=O)cc1 (stereo unspecified) | i |
| CC1(NC(=O)CN2CCOCC2)CCCCC1c1ccc(O)cc1 (stereo unspecified) | 9.6% |
| Cc1cc(NC(=O)c2cnn3c2NC(c2ccco2)CC3C(F)(F)F)n(-c2ccccc2)n1 (stereo unspecified) | i |
| COc1ccc(C(=O)Nc2cc(C)c(I)cc2C)cc1OC | i |
| CCOC(=O)c1c(-c2ccc(Cl)cc2)csc1NC(=O)c1ccco1 | i |
| Nc1nc(-c2cccc(Br)c2)cs1 | i |

(next part)
| Compound | Mtb growth |
| --- | --- |
| Cc1ccc(C(=O)NC(=S)Nc2ccc(Br)c(C)n2)c(C)c1 | i |
| COC(=O)c1ccc(NC(=O)C(Cc2ccccc2)N2C(=O)C3C4CCC(C4)C3C2=O)cc1 (stereo unspecified) | i |
| Cc1cc(Br)ccc1OCC(=O)Nc1cccc(C(F)(F)F)c1 | i |
| COc1ccccc1-c1noc(C2CCN(S(=O)(=O)Cc3ccccc3)CC2)n1 | i |
| COC(=O)C1CCN(C2CC(=O)N(c3cc(C)cc(C)c3)C2=O)CC1 (stereo unspecified) | i |

High-throughput results from PubChem BioAssay.
